High-throughput results: PubChem BioAssay, National Center for Advancing Translational Sciences (NCATS)
Rango dissoc inh = inhibition of RanGTP-driven Rango-importin beta dissociation | O95149+P62826 | Biochemical FRET Rango-importin beta, RanGTP-induced dissociation | Potency, µM (titrated, usually from 46.1 µM), inactives show at the highest dose activity change, negative = inhibition | hit rate 0.071% among 340,000 | AID 540253; active means falling FRET ratio curve, often poorly fitted, with flat reads before Ran was added; inconclusive means other falling curves, or compound fluorescence or quenching; inactive means flat or rising ratio curve;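 also: potency is read from the fitted curve at half-maximal effect; % of control where 0% means no effect; nearly all actives have a fitted effect of over 45% in size; -100% = wells without RanGTP and RCC1; the record marks most hits as doubtful in a second field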
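Compounds sat 5 min at room temperature with 0.1 uM Rango biosensor plus 0.25 uM importin beta, then FRET pre-read. RanGTP-RCC1 (0.6 uM Ran, 2mM GTP, 0.2 uM RCC1) added for 45 min, and the CFP/YFP post-read measured blocked complex dissociation.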
Rango-impB inh = inhibitors of Rango-importin beta complex formation. Q14974. Rango CFP/YFP FRET sensor + importin beta, 45 min. Potency, µM (doses to about 92.2 µM), for the others: at the highest dose inhibition of complex formation. hit rate 0.031% among 340,000. AID 540263; active = rising FRET ratio curve, often small or poorly fitted; inconclusive = mostly compound fluorescence or quenching in the first reads; inactive = flat curves in all reads;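 also: potency is read from the fitted curve at half-maximal effect; 0% = DMSO wells and 100% = buffer wells lacking importin beta; nearly all actives have a fitted effect of over 15% in size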
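FRET biosensor Rango (snurportin 1 IBB between N-terminal EYFP and C-terminal Cerulean), 50 nM in PBS/1 mM DTT/0.02% Tween-20/0.1% BSA, preincubated 5 min RT with compound; 0.125 microM importin beta added, 45 min RT, CFP/YFP FRET ratio read.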
GLA inh pH 4.5 = alpha-galactosidase A (human) inhibition, pH 4.5 | purified enzyme, 4-MU-alpha-Gal fluorescence, pH 4.5 | activity change, negative = inhibition, % at 105 µM | 230,000 tested, under 10 active | AID 1467; inconclusive = small, poorly fitted or top-dose-only inhibition, or a rising curve; inactive = flat fitted curve, though single readings scatter; no compound was filed as active;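 also: 0% = full activity with enzyme and -100% = basal without enzyme; dose as in the result columns while the protocol names 77 µM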
Target sequence (P06280 whole entry, looked up): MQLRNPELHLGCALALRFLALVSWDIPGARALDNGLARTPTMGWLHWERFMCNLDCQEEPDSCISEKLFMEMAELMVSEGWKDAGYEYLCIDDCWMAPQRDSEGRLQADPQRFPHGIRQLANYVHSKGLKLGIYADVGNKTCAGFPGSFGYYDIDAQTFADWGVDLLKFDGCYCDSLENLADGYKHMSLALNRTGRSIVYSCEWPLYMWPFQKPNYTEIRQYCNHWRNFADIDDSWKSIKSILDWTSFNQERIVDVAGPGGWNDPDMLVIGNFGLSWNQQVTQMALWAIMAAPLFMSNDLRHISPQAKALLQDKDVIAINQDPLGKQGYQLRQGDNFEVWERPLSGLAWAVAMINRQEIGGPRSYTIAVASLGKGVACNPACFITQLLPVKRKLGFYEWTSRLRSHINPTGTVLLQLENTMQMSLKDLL
miR-21 reporter = raises the signal of a miR-21 reporter; 340,000 tested, under 10 active; AID 2288; HeLa miR-21 FLuc reporter, luciferase, 48 h; Potency, µM (titrated, usually from 38.3 µM), without a hit: at the top dose reporter change, positive = more light; active = well fitted rising curve with a large enough effect; inconclusive = small, poorly fitted or top-dose-only effect; inactive = no such curve, though single readings can be large or run the other way;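 also: % of control where 0% means no effect; miR-21 action dims this reporter so a rising signal means less miR-21 action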
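Using DMEM plus 10% FBS, HeLa miR-21-FLuc cells are incubated with test compounds (final up to about 40uM) for 48 hours; firefly luciferase signal is then imaged following reagent-mediated lysis.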
* hit, by the source's call; ? = inconclusive; . = no result given.

Start of the data: the first two compounds (preview)
SMILES	Rango dissoc inh	Rango-impB inh	GLA inh pH 4.5	miR-21 reporter
CCOC(=O)C(C)Oc1cccc2c(=O)n(CC(=O)Nc3cccc(OC)c3)ccc12 (centres undefined)	2%	-0.5%	1	-1%
CC(C)C(=O)Nc1ccc2c(c1)nc1n2CCSC1	-13%	2.7%	-16	-35%

All compounds of this part, from the start:
SMILES	Rango dissoc inh	Rango-impB inh	GLA inh pH 4.5	miR-21 reporter
CCOC(=O)C(C)Oc1cccc2c(=O)n(CC(=O)Nc3cccc(OC)c3)ccc12 (centres undefined)	2%	-0.5%	1	-1%
CC(C)C(=O)Nc1ccc2c(c1)nc1n2CCSC1	-13%	2.7%	-16	-35%
CCn1c2ccccc2c2cc(CC(N)=O)ccc21	-12%	0.1%	5	-6%
NC1=NC(=O)/C(=C/c2cccs2)S1	-7%	0.3%	14	-3%
Cc1ccc(C(=O)Nc2ccc(S(=O)(=O)Nc3ncccn3)cc2)cc1[N+](=O)[O-]	-17%	8.2%	.	1%
CCc1ccc(-c2cc(C)no2)cc1S(=O)(=O)N1CC(=O)Nc2ccccc21	40%	3.0%	.	0%
CCOC(=O)c1sc2nc3c(SCC(=O)O)cc(C(=O)c4cc(F)ccc4O)cn3c(=O)c2c1C	?	?	-17	2%
O=C(NCc1ccc2c(c1)OCO2)c1cc(-c2ccccn2)nc2ccccc12	36%	?	1	10%
Cc1ccccc1N=CC1=C(O)c2ccccc2C1=O	-1%	4.0%	4	-12%
O=C(COc1ccccc1Cl)Nc1cccc(S(=O)(=O)NC2=NCCCCC2)c1	13%	1.9%	.	.
COc1ccc(C(=O)COC(=O)c2nn(C)c(=O)c3ccccc23)c(OC)c1	-14%	1.1%	-26	-3%
Cc1ccc(OCCNC(=O)c2ccc(C)cc2)cc1	-9%	-0.6%	.	-65%
CN(C)c1ccc(/C=N/NC(=O)C(=O)/C=C2\NC3(CCCC3)Cc3ccccc32)cc1	-1%	?	?	12%
CC(=O)C1=C(C)NC(=O)NC1c1cccc([N+](=O)[O-])c1O (centres undefined)	18%	0.2%	-12	0%
Cc1ccccc1C(=O)Nc1nnc(-c2cccnc2)o1	0%	-2.6%	-1	-2%
CCOC(=O)C1CCCN(C2=NC(=O)/C(=C/c3ccc(OC)cc3OC)S2)C1 (centres undefined)	-25%	?	.	-18%
CCc1ccc(C(=O)NCc2cnn(C)c2)s1	-7%	1.0%	-12	-26%
Cc1ccc(S(=O)(=O)N2CCOCC2)cc1C(=O)N1CCOCC1	1%	1.4%	4	-4%
O=C(NCc1ccccc1)NC1(C(=O)N2CCN3CCCC3C2)CCCCC1 (centres undefined)	2%	2.3%	-5	-1%
C/C(=N\NC(=O)c1cccnc1)c1nnn(-c2nonc2N)c1C	-6%	-0.8%	6	1%
Cc1ccnc2nc(C(=O)OCC(=O)N(CC(C)C)CC(C)C)nn12	-2%	4.2%	5	0%
COc1ccc(-c2nc3cnccn3c2Nc2ccc(C)cc2)cc1	?	?	-8	-18%
O=C(Nc1cccc(Cl)c1)/C(=C\c1cccnc1)NC(=O)c1ccco1	-10%	0.6%	2	-7%
CN(C)CCN(Cc1ccccc1)C(=O)C1CCN(c2ncnc3c2nc2n3CCCCC2)CC1	-10%	?	.	-14%
N#C/C(=C(\O)CCl)c1nnc2n1CCCCC2	9%	0.7%	2	10%
COc1cc(C(=O)N2C[C@@H]3CCC[C@H]2C3)ccc1OC1CCN(C(C)=O)CC1	-14%	-1.2%	.	-7%
Cc1ccccc1Cn1c(=O)n(CCC(=O)NCc2ccc3c(c2)OCO3)c(=O)c2ccccc21	10%	1.5%	3	1%
COc1cc(OC)cc(C(=O)NNC(=O)C2CCCC2)c1	-3%	-0.1%	.	2%
COc1ccc(CCN=C(N)NS(=O)(=O)c2cc(F)ccc2OC)cc1	-3%	-3.8%	.	-8%
O=C(Cc1ccc(Cl)cc1)Nc1ccc(Br)cn1	8%	1.2%	.	-31%
Cc1cc(C)c(OCCCON2C(=O)CCC2=O)c(Br)c1	5%	-2.6%	3	-3%
NC(=Nc1ccccc1)N(c1ccccc1)c1ccccc1	21%	-0.5%	.	.
CCCn1c(SCC(=O)NNC(=O)c2ccccc2)nnc1-c1cccnc1	16%	1.1%	13	-1%
O=C(N/N=C/c1c(O)n(-c2ccc(Cl)cn2)c(=O)c2ccccc12)c1ccncc1	?	?	-19	7%
CCCN1C(=O)c2cc(C(=O)Nc3cccc(C(C)=O)c3)ccc2C1Nc1cccc(C(C)=O)c1 (centres undefined)	4%	1.4%	-4	22%
C=C(C)c1cccc(C(C)(C)NC(=O)Nc2ncccn2)c1	-5%	0.8%	-2	-3%
Cc1ccc(NC(=O)C2CCCCC2)cc1C	5%	-0.8%	.	.
N#CCOc1coc(CN2CCN(c3cccc(Cl)c3)CC2)cc1=O	-25%	2.3%	.	4%
COc1ccc(-c2cc(C(=O)Nc3cc(OC)cc(C(=O)Nc4cccc(C(F)(F)F)c4)c3)[nH]n2)cc1	2%	-1.8%	-2	16%
Cc1ccc(S(=O)(=O)NCc2ccc(/C=C(/C#N)C(=O)NCc3ccccc3)o2)cc1	5%	-0.4%	-4	-23%
c1ccc(C2=Nn3c(nnc3-c3n[nH]c4c3CCC4)SC2)cc1	-11%	-0.7%	8	-16%
c1ccc2nc(-c3nc4ccccc4[nH]3)ccc2c1	2%	0.3%	1	15%
CC(C)CCCN1C(Nc2ccccc2)=NC[C@@H]1C	16%	-5.1%	.	0%
[N-]=[N+]=NCCN1CCN(CCc2ccccc2)CCC1=O	-15%	-1.7%	.	-2%
COCCn1c(SCC(=O)N2CCCCC2)nc2c([nH]c3ccccc32)c1=O	-1%	-0.2%	.	2%

Given as labelled records: part of the list above.
canonical_smiles: NC1=NC(=O)/C(=C/c2cccs2)S1
- Rango dissoc inh: -7%
- Rango-impB inh: 0.3%
- GLA inh pH 4.5: 14
- miR-21 reporter: -3%
canonical_smiles: Cc1ccc(C(=O)Nc2ccc(S(=O)(=O)Nc3ncccn3)cc2)cc1[N+](=O)[O-]
- Rango dissoc inh: -17%
- Rango-impB inh: 8.2%
- GLA inh pH 4.5: .
- miR-21 reporter: 1%
canonical_smiles: CCc1ccc(-c2cc(C)no2)cc1S(=O)(=O)N1CC(=O)Nc2ccccc21
- Rango dissoc inh: 40%
- Rango-impB inh: 3.0%
- GLA inh pH 4.5: .
- miR-21 reporter: 0%

Next records
SMILES	Rango dissoc inh	Rango-impB inh	GLA inh pH 4.5	miR-21 reporter
CCCCCCSc1cc(-c2nc3cnccn3c2NCc2ccccc2)ccc1OC	?	?	.	.
Cc1cccc(N2C(=O)C3C4CC(=O)C(c5ccccc54)C3C2=O)c1C (centres undefined)	-5%	3.8%	4	1%
CSc1nc2ncc(-c3ccsc3)c(N)n2n1	5%	0.3%	-10	0%
COC(=O)[C@H](C)NC(=O)Nc1ccc(C)c(C)c1	-19%	3.5%	-3	-5%
CCN(CC)CCCN1CC(=O)N2[C@@H](Cc3c([nH]c4ccccc34)C2(C)C)C1=O	0%	-2.0%	.	-4%
Cc1nn(CC(=O)NCCCN2CCCCC2)c(=O)c2cc(-c3ccccc3)nn12	-9%	7.1%	.	-1%
CN(C)c1ccc(/C=C(\C#N)C(=O)c2ccccc2)cc1	?	?	-4	1%
COc1ccc2cc(C(=O)C3CCCN(C(=O)CCc4cnn(C)c4)C3)ccc2c1 (centres undefined)	18%	-3.3%	17	-25%
O=C(O)c1cc(/C=N\O)ccc1OCc1ccccc1	-6%	0.0%	3	-6%
O=C(CNC1CCCCCC1)Nc1ccccc1N1CCOCC1	11%	-1.6%	1	-2%
COc1ccc(C2OC3=C(Nc4cc(C)c(C)cc4N3)C2=O)cc1 (centres undefined)	?	?	-8	-53%
Cn1c(NCCO)nc2c(c1=O)C1(CCCCC1)Cc1ccccc1-2	-3%	-0.7%	3	5%
O=C(Nc1ccc(OCc2ccccc2)cc1)c1cccs1	0%	-1.5%	.	-35%
COc1ccc(OC)c(C2C(C(C)=O)=C(O)C(=O)N2c2ccc(O)cc2)c1 (centres undefined)	0%	-0.3%	6	1%
COc1ccc(/C=C/C(=O)NCC(=O)N/N=C/c2ccc(OC)cc2)cc1	0%	0.7%	-3	-3%
Clc1ccc(Cn2ncc3c(N4CCCCC4)ncnc32)cc1	-3%	-4.6%	0	-7%
O=C(COc1ccc(Br)cc1)NNC(=O)c1ccc(-n2cncn2)c([N+](=O)[O-])c1	25%	-0.7%	.	.
COc1cc(CC(=O)OCC(=O)NC(C)c2ccccc2)cc(OC)c1OC (centres undefined)	-3%	-3.8%	.	.
Cc1c(C(=O)N(C)C2CC(C)(C)NC(C)(C)C2)oc2c(F)cccc12	12%	-0.2%	.	-5%
CCOC(=O)NC(=O)CSc1nnnn1-c1ccc(Cl)cc1	1%	2.3%	0	-10%
CC(C)Nc1nc(NC(N)=S)nc(NC(C)C)n1	-14%	0.0%	-5	-25%
COc1ccccc1CNC(=O)C1CCN(S(=O)(=O)c2ccc3c(c2)CC(C)N3C(C)=O)CC1 (centres undefined)	14%	-0.1%	.	3%
CC(C)N(C(=O)CN(C#N)c1nc(N(C)C)nc(N(C)C)n1)c1ccccc1	-7%	-1.3%	-6	0%
CC(C)c1ccc(-c2nc(N3CCCCCC3)nc3n[nH]c(N)c23)cc1	-1%	1.1%	3	-8%
CC(C)c1cc(NCCN2CCOCC2)n2c(nc3ccccc32)c1C#N	-2%	-1.9%	.	.
Cc1nnc(SCC(=O)NCc2ccco2)n1-c1ccccc1	-12%	-0.7%	-1	3%
CCc1oc(C(=O)O)cc1CN(CC)CC	9%	-0.3%	18	-5%
O=C(/C=C/c1ccccc1)COC(=O)c1ccccc1	24%	1.1%	.	.
O=C(NCCc1ccccc1)c1ccc2c(c1)S(=O)(=O)c1ccccc1C2=O	2%	-1.8%	.	.
Nc1c(N(CCC2=CCCCC2)C(=O)COc2ccc(F)cc2Cl)c(=O)[nH]c(=O)n1Cc1ccccc1	1%	?	.	.
COc1cccc(CN(C)C(=O)c2ccc(Cl)c(S(=O)(=O)N3CCCCCC3)c2)c1OC	-8%	-3.7%	.	.
Cc1ccccc1Cn1nc(C)c(NC(=O)/C=C/c2cnn(C)c2C)c1C	-11%	-3.3%	1	-1%
CCOc1cc(/C=N/NC(=O)COc2ccc(C)cc2)ccc1OC(=O)c1cccs1	0%	4.3%	1	3%
O=C(CN1CCC(NC(=O)c2cccc(F)c2)CC1)NCc1ccccc1F	4%	-0.4%	6	-7%
O=C(/C=C/c1ccc(OC(F)F)cc1)OCC(=O)N1CCc2ccccc21	7%	-0.2%	.	.
CCN(C(=O)CSc1ncnc2sccc12)c1c(N)n(Cc2ccccc2)c(=O)[nH]c1=O	-11%	-2.7%	.	.
CCC(Oc1ccccc1)C(=O)NC1CCSC1=O (centres undefined)	2%	-5.2%	5	-1%
COc1cccc(NC(=O)CCS(=O)(=O)c2ccc(Br)cc2)c1	-8%	-1.7%	.	1%
Cc1ccc(-c2nnc(SCCC(=O)N3CCOCC3)o2)cc1	18%	-0.6%	3	-5%
CCN(CC)S(=O)(=O)c1ccc(NC2c3ncccc3C(=O)N2Cc2ccccc2)cc1 (centres undefined)	15%	-0.3%	20	-4%
C/C(=N\NC(=O)CSc1nnc(C)s1)c1ccc(O)cc1	7%	-2.3%	-4	-3%
CCOCCCNC(=O)C1(O)c2ccccc2NC(=O)N1c1ccc(Cl)cc1 (centres undefined)	-4%	-0.1%	.	-23%
CCCCNC(=S)N(C)/N=C/c1ccccc1F	8%	2.1%	2	-7%
CC1Cc2ccccc2N1C(=O)COC(=O)c1ccccc1NCCO (centres undefined)	-24%	-4.7%	.	.
COc1ccc(/C=C(/NC(=O)c2ccccc2)C(=O)NCc2ccncc2)cc1	10%	-0.6%	.	3%
CN(c1ccc(C(=O)Nc2ccc(S(=O)(=O)N3CCCC3)cc2)cc1)S(C)(=O)=O	12%	1.8%	4	22%
CCC(C)C(NC(=O)C1CCC(C)CC1)C(=O)Nc1cc(OC)ccc1OC (centres undefined)	0%	-3.0%	6	0%
Cc1c(C(N)=O)c(N)c(C(=O)c2ccccc2)n1-c1ccccc1	16%	11%	6	-1%
CC1(c2cccs2)CC(c2cccs2)=C(C#N)C(=O)N1 (centres undefined)	-17%	?	-17	-6%

Some of the compounds tested. The share of hits here may be higher or lower than overall.
